Env fusion inh = inhibitors of HIV Env-mediated cell fusion; HeLa-JRFL Env/CEM21 cell fusion, luciferase; inhibition, % at 12.3 µM; AID 651610; 1.1% of 360,000 active;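 active = mean replicate inhibition score of at least 50 and every replicate individually at or above 50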;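 also: 0% = plate neutral controls and 100% = maraviroc near 300 nM; one replicate is shown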
MT1-MMP act inh = MT1-MMP (human) activation inhibition; P50281; HT1080 RFP-PRO-GFP cells, GFP/RFP ratio fluorescence, overnight; percent of plate control window, DMSO zero; GFP/RFP ratio change, % at 20 µM; 0.061% of 360,000 active; AID 651647;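 active = GFP/RFP ratio change of at least 30% with cell ATP level not reduced by more than half and red fluorescence within 50% of control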; also: strong numbers were not always called active
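Assay system: HT1080 RFP-PRO-GFP cells. Benchmarks: DMSO vehicle wells and RFP-L50D-GFP reporter cell wells. Times: overnight cell settling, then overnight compound exposure, 37 °C, 5% CO2. Compound: 20 µM single dose, 1% DMSO. Read-out basis: GFP/RFP fluorescence ratio.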
MT1-MMP act inh RFP = recorded beside MT1-MMP act inh, whose call it bears; RFP signal change, %; measured here: RFP expression control read;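 0 = vehicle wells; hits needed this value within 50% of zero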
Numbers without * were called inactive. The list is partial; rates above refer to the full screens.

Compound	Env fusion inh	MT1-MMP act inh	MT1-MMP act inh RFP
CC1CC=CCC12C(=O)NC(=S)NC2=O (configuration not stated)	-26	1	-2
CNC(=O)Oc1c(C)[nH]ccc1=O	-14	-1	-1
COc1cc2c(cc1OC)C13CCN4C=C5CCOC6CC(=O)N2C1C6C5CC43 (configuration not stated)	-18	1	6
CC(=O)O[C@H]1CCC2C3CC[C@H]4[C@@H](O)[C@H](O)CC[C@]4(C)C3CC[C@@]21C (some centres not stated)	4	-2	-3
CC1CC(C)CC(C)C(O)C(C#N)=CC=CCC(C2CCCC2C(=O)O)OC(=O)CC(O)C(C)C1 (configuration not stated)	71*	-43	-34
O=C1CC=C2C3CC4N(CCC45c4cc(O)c(O)cc4N1C25)CC3=CCBr (configuration not stated)	-7	2	2
COc1c(OP2(=S)OCC(C)(C)CO2)cnn(C2CCCCC2)c1=O	16	2	-5
O=C(NN=Cc1ccc(N(CCCl)CCCl)cc1Cl)c1cccnc1	56*	6	0
COc1ccc(C(=O)OCC2CN2c2cccc([N+](=O)[O-])c2)cc1 (configuration not stated)	-2	1	0
CCOC(=O)[C@]12Cc3ccccc3[C@H]1N(CCC(=O)OC)C(=O)c1ccccc12	8	-4	-2
CC[n+]1c(-c2ccccc2)c2cc(N)ccc2c2ccc(N)cc21	8	65	52
CCOC(=O)[C@]12Cc3ccccc3[C@H]1N(Cc1ccccc1)C(=O)c1cc(F)c(F)cc12	19	-4	-2
CC(O)C1C=CC=CC(=O)OC2CC3OC4C5OC5(C)CCC4(COC(=O)C4OC4(C)C(O)CO1)C2(C)C31CO1 (configuration not stated)	53	-38	-33
O=C(NCCCN1CC1)Nc1cccc2ccccc12	31	3	2
O=C1NC(=S)NC(=O)C1Cc1ccccc1	1	-1	7
CCOC(=O)[C@]12Cc3c(cc(OC)c(OC)c3OC)[C@H]1N(C)C(=O)c1ccccc12	9	1	0
CC1CN1P(=O)(Oc1ccccc1)N1CC1C (configuration not stated)	1	3	1
CCC1CN2CCc3cc(OC)c(OC)cc3C2CC1CC1NCCc2c1[nH]c1ccc(O)cc21 (configuration not stated)	73*	-39	-37
C[N+](C)(C)CC1CCCc2ccccc2C1=O (configuration not stated)	20	0	1
C(=NC1CCCCC1)c1c[nH]c2ccccc12	0	-2	2
C[C@@]12CC[C@@H](c3cc4c(cc3C1)OCO4)N2c1ccccc1	-17	-1	-2
CC1CC(C)(O)CC(C(O)CC2CC(=O)NC(=O)C2)C1=O (configuration not stated)	98*	-52	-38
O=C(O)C1(Br)CC12c1ccccc1-c1ccccc12 (configuration not stated)	-12	-5	3
CCOC(=O)[C@]12Cc3cc(C)ccc3[C@H]1N(C(C)C)C(=O)c1ccccc12	-8	-10	-26
O=C1OCCC1C(=O)c1ccccc1 (configuration not stated)	6	5	7
CNC1(c2ccc(F)cc2)CCCCC1	2	0	2
COc1ccc2c(c1)C(NC(C)=O)CCc1cc(OC)c(OC)c(OC)c1-2 (configuration not stated)	-8	27	12
C[N+](C)(C)CC1CCCC1=O (configuration not stated)	-23	-7	-1
O=S1(=O)NCC2(CC2)CN1Cc1ccccc1	-8	6	6
CSc1nc(NC(C)C)nc(NC(C)C)n1	-3	-3	6

Arranged by SMILES length (smallest number first): part of the list above
Compound	Env fusion inh	MT1-MMP act inh	MT1-MMP act inh RFP
C[N+](C)(C)CC1CCCC1=O (configuration not stated)	-23	-7	-1
COc1c(OP2(=S)OCC(C)(C)CO2)cnn(C2CCCCC2)c1=O	16	2	-5
CCC1CN2CCc3cc(OC)c(OC)cc3C2CC1CC1NCCc2c1[nH]c1ccc(O)cc21 (configuration not stated)	73*	-39	-37

Taken from above.
Value for CC1CC(C)(O)CC(C(O)CC2CC(=O)NC(=O)C2)C1=O (configuration not stated) in Env fusion inh: 98*
Value for O=C(NCCCN1CC1)Nc1cccc2ccccc12 in Env fusion inh: 31

Another view of part of the listing above.
Order of values: Env fusion inh	MT1-MMP act inh	MT1-MMP act inh RFP
> CCOC(=O)[C@]12Cc3ccccc3[C@H]1N(CCC(=O)OC)C(=O)c1ccccc12
 : 8	-4	-2
> CC[n+]1c(-c2ccccc2)c2cc(N)ccc2c2ccc(N)cc21
 : 8	65	52
> CCOC(=O)[C@]12Cc3ccccc3[C@H]1N(Cc1ccccc1)C(=O)c1cc(F)c(F)cc12
 : 19	-4	-2
> CC(O)C1C=CC=CC(=O)OC2CC3OC4C5OC5(C)CCC4(COC(=O)C4OC4(C)C(O)CO1)C2(C)C31CO1 (configuration not stated)
 : 53	-38	-33

An excerpt from above, showing only MT1-MMP act inh.
compound | MT1-MMP act inh
CCC1CN2CCc3cc(OC)c(OC)cc3C2CC1CC1NCCc2c1[nH]c1ccc(O)cc21 (configuration not stated) | -39
O=S1(=O)NCC2(CC2)CN1Cc1ccccc1 | 6
CC[n+]1c(-c2ccccc2)c2cc(N)ccc2c2ccc(N)cc21 | 65
O=C1CC=C2C3CC4N(CCC45c4cc(O)c(O)cc4N1C25)CC3=CCBr (configuration not stated) | 2

Next part:
Compound	Env fusion inh	MT1-MMP act inh	MT1-MMP act inh RFP
COC(=O)CN(CCCl)P1(=O)OCCCN1CCCl (configuration not stated)	-36	7	5
COc1cccc(NP2(=O)OCC(C)([N+](=O)[O-])CO2)c1 (configuration not stated)	6	-2	0
O=C(Cc1c(-c2ccccc2)nc2ccc(Br)cn12)N1CCCC1	-8	4	3
CC1=C(C)CC2(C(=O)NC(=O)NC2=O)C(C)C1 (configuration not stated)	-14	-2	5
O=C(Nc1ccc(C(=O)O)cc1)Oc1ccc(N(CCCl)CCCl)cc1	11	-8	-5
COc1ccc(CCN)cc1S(N)(=O)=O	-2	2	6
CCOC(=O)[C@]12Cc3cc(OC)ccc3[C@H]1N(CC(=O)OC)C(=O)c1cc(OC)ccc12	-2	-14	-11
Cc1ccc(C(O)(C(=O)OC(C)C)C(O)c2ccccc2)cc1 (configuration not stated)	-29	2	4
COc1ccc(C=C2C(=O)NC(=S)NC2=O)cc1	0	-2	2
O=NN(CCF)C(=O)NC1CCC(=O)NC1=O (configuration not stated)	-33	7	6
COc1ccc(C2C3C=CC(C3)C2C(=O)O)cc1 (configuration not stated)	35	0	5
CCN1CCOC(c2ccccc2)C1 (configuration not stated)	-93	1	1
CC12CCC(O)CC1CCC1C2CCC2(C)C(C3=CC(=O)OC3)CCC12O (configuration not stated)	87*	-46	-26
CCOC(=O)C12C(=O)OCC1C2c1ccccc1 (configuration not stated)	-5	7	7

Screening results (PubChem BioAssay)
